StopGo FLuc: Primary qHTS Assay for Foot and Mouth Disease Virus Antivirals against NCGC Sytravon and CBC Compound Libraries: Firefly Luciferase Signal | 120,000 tested, 0.23% active | Potency, µM (highest dose often 57.5 µM), without a hit: top-dose signal change, negative = less light | HEK cells with a luciferase reporter of 2A StopGo recoding | AID 1745856, 2022; active = well fitted falling curve with a large enough effect; inconclusive = small, poorly fitted or top-dose-only effect; inactive = no such curve, though single readings can be large or run the other way; note: nearly all actives have a fitted effect of over 60% in size; overnight with compound
2A Renilla: Primary qHTS Assay for Foot and Mouth Disease Virus Antivirals against NCGC Sytravon and CBC Compound Libraries: Renilla Luciferase Signal. HEK cells with a luciferase reporter of 2A StopGo recoding. Potency, µM (highest dose often 57.5 µM), without a hit: at the top dose signal change, negative = less light. 120,000 tested, 0.32% active. AID 1745857, 2022; active means well fitted falling curve with a large enough effect; inconclusive means small, poorly fitted or top-dose-only effect; inactive means no such curve, though single readings can be large or run the other way; note: nearly all actives have a fitted effect of over 55% in size; overnight with compound
Active calls of the source: *; [ ] = another dose, or the depositor's remark. % is set by controls: 0 for no effect and ±100 for the full control effect; potency is the fitted concentration of half-maximal effect.

Sample of the layout, 3 compounds:
`Cc1cccc(NC(=O)Cn2c(=O)n(CCC(C)C)c(=O)c3cccnc32)c1` gave StopGo FLuc -5.6% and 2A Renilla -7.2%.
Cc1ccc(C)c(N2CCN(S(=O)(=O)c3ccc4c(c3)C(C(C)C)C(=O)N4)CC2)c1 (centres undefined) was read as StopGo FLuc inconclusive and 2A Renilla inconclusive.
For O=C(NCc1ncc(-c2ccccc2)o1)c1cccc(F)c1 the results were StopGo FLuc 81.9%[activator] and 2A Renilla 35.5%[activator].

This part in full, previewed entries included:
`Cc1cccc(NC(=O)Cn2c(=O)n(CCC(C)C)c(=O)c3cccnc32)c1` gave StopGo FLuc -5.6% and 2A Renilla -7.2%.
Cc1ccc(C)c(N2CCN(S(=O)(=O)c3ccc4c(c3)C(C(C)C)C(=O)N4)CC2)c1 (centres undefined) was read as StopGo FLuc inconclusive and 2A Renilla inconclusive.
For O=C(NCc1ncc(-c2ccccc2)o1)c1cccc(F)c1 the results were StopGo FLuc 81.9%[activator] and 2A Renilla 35.5%[activator].
`CCCCc1[nH]nc2c1C1(C(=O)Nc3ccccc31)C(C#N)=C(N)O2` (centres undefined) gave StopGo FLuc -0.1% and 2A Renilla -7.3%.
`CC1CCCN(CCCNC(=O)c2cc(Sc3ccc(F)cc3)nc3ccccc23)C1` (centres undefined) gave StopGo FLuc -3.4% and 2A Renilla 9.8%.
For CCOC(=O)c1cc(C)n(CC2CCC(C(=O)Nc3cc(OC)cc(OC)c3)CC2)c1C (centres undefined) the results were StopGo FLuc 5.2% and 2A Renilla -6.7%.
Cc1cc2cc3c(C)cc(=O)oc3c(C)c2o1 was read as StopGo FLuc -13.9% and 2A Renilla -9.0%.
Cc1cccc(C)c1NC(=O)CN1CCCN(c2ccc(C(F)(F)F)cn2)CC1 was read as StopGo FLuc inconclusive and 2A Renilla inconclusive.
O=C(CN1N=C(c2ccc(Cl)cc2)CCC1=O)NCCc1ccc(Cl)cc1 was read as StopGo FLuc -13.6% and 2A Renilla 0.5%.
`O=C(Nc1cc2c(cc1C(=O)c1ccc(Br)cc1)OCCO2)c1ccc(Cl)cc1` gave StopGo FLuc 28.3% and 2A Renilla -3.2%.
Screening N#Cc1ccc(COC(=O)C2=NN(C3CCS(=O)(=O)C3)C(=O)CC2)cc1 (centres undefined) returned StopGo FLuc -10.9% and 2A Renilla 2.2%.
`CCCOc1ccc(NC(=O)Cc2cccc3ccccc23)c2cccnc12` gave StopGo FLuc -2.4% and 2A Renilla -5.9%.
`C=CCN1CCN(c2nc3c(c(=O)[nH]c(=O)n3C)n2Cc2ccc(Cl)c(Cl)c2)CC1` gave StopGo FLuc -15.3% and 2A Renilla -13.6%.
CCC(CC)C(=O)N1c2ccccc2C(C)(c2ccccc2)CC1(C)C (centres undefined) was read as StopGo FLuc -10.4% and 2A Renilla 11.4%.
`COc1cccc(CNC(=O)Cn2nc(C(=O)O)c3ccccc3c2=O)c1` gave StopGo FLuc 0.0% and 2A Renilla 60.1%[activator].
For O=C1/C(=C/c2ccccc2)COc2ccccc21 the results were StopGo FLuc 105.8%[activator] and 2A Renilla 23.7%.
CCOc1ccc(-c2cc3c(=O)n(CC(=O)NCc4ccco4)ccn3n2)cc1 was read as StopGo FLuc 183.3%[activator] and 2A Renilla -0.6%.
`O=C(NCc1ccc(-n2cccn2)cc1)c1ccc(F)cc1Br` gave StopGo FLuc 11.8% and 2A Renilla 6.0%.
`Cc1nn(CCCC(=O)NCc2cccc(F)c2)c(=O)c2nn(-c3ccccc3)c(C)c12` gave StopGo FLuc -16.1% and 2A Renilla -17.1%.
Screening Cc1cc(C)n(C(=O)c2cn(C)nc2S(=O)(=O)N2CCN(c3ccc(Cl)cc3)CC2)n1 returned StopGo FLuc -18.6% and 2A Renilla -11.0%.
`COc1ccc(Cl)cc1NC(=O)c1nn(C)c(=O)c2ccccc12` gave StopGo FLuc 8.5% and 2A Renilla 0.8%.
`Cc1ccc2c(C)c(C(=O)N(Cc3cccc(Br)c3)C3CCS(=O)(=O)C3)oc2c1` (centres undefined) gave StopGo FLuc -10.2% and 2A Renilla 26.6%.
CSc1ccc(C2CC(=O)Nc3c2c(=O)[nH]c2ncnn32)cc1 (centres undefined) was read as StopGo FLuc 5.8% and 2A Renilla 5.1%.
Screening CCOc1ccccc1NC(=O)c1c(NCc2ccc(OC)c(OC)c2OC)sc2c1CCC(C)C2 (centres undefined) returned StopGo FLuc 4.2% and 2A Renilla 18.2%.
For CC(C)(C)N1Cc2nnn(Cc3ccccc3)c2-c2cc(N3CCCCC3)ccc2S1(=O)=O the results were StopGo FLuc -1.7% and 2A Renilla 112.6%[activator].
`N[C@@H](COP(=O)(O)O)C(=O)O` gave StopGo FLuc -15.6%[27 µM] and 2A Renilla -8.8%[23.8 µM].
Screening CN1CCN(C(=O)c2ccc3c(c2)N(Cc2ccc(F)cc2)C(=O)c2ccccc2S3(=O)=O)CC1 returned StopGo FLuc -10.4% and 2A Renilla 22.3%.
Screening O=C(O)c1ccc(NC(=O)c2cn(-c3ccccc3)nc2-c2ccc(Br)cc2)cc1 returned StopGo FLuc 1.6% and 2A Renilla 0.4%.
For Cc1ccccc1NCc1cccn1-c1nnc(N2CCC(C)CC2)s1 the results were StopGo FLuc 190.5%[activator] and 2A Renilla 24.5%.
`Cc1ccc(-n2c(=O)c3cccnc3n2CC(=O)Nc2cccc(Cl)c2)cc1C` gave StopGo FLuc 12.2% and 2A Renilla 6.5%.
For C=C(C)COc1ccc2c(C)c(CC(=O)Nc3ccc4c(c3)OCO4)c(=O)oc2c1 the results were StopGo FLuc -4.5% and 2A Renilla -11.3%.
For CN1C(=O)CN=C(c2ccccc2)c2cc(Cl)ccc21 the results were StopGo FLuc -12.0%[11.5 µM] and 2A Renilla 25.4%.
O=C(N/N=C/c1ccccc1[N+](=O)[O-])NC1CCCCC1 was read as StopGo FLuc 167.9%[activator] and 2A Renilla 0.0%.
`C=CCN1CCN(C(=O)Cc2ccccc2)CC1` gave StopGo FLuc 0.0% and 2A Renilla 6.3%.
For CCC(C)NC(=O)Cn1c(=O)c2c(C)cc(C)nc2n(-c2ccccc2OC)c1=O (centres undefined) the results were StopGo FLuc -2.4% and 2A Renilla -5.4%.
For O=C(O)c1cccc(-c2ccc(F)cc2)c1 the results were StopGo FLuc 166.0%[activator] and 2A Renilla 1.2%.
`CC(=O)c1c(C(F)(F)C(F)(F)F)n[nH]c1C` gave StopGo FLuc -8.9% and 2A Renilla 24.4%.
Screening CC(C)NC(=O)C(=O)NCCC1CCCC1 returned StopGo FLuc 92.8%[activator] and 2A Renilla 6.6%.
CC(=O)NC12CC3CC(C1)CC(C(=O)NCc1ccc(Cl)cc1Cl)(C3)C2 was read as StopGo FLuc -8.9% and 2A Renilla -1.9%.
For C=CCNC(=S)NCCCOC the results were StopGo FLuc 1.5% and 2A Renilla 5.3%.
Screening O=C(Nc1ccc(-c2nc3cc(Cl)ccc3o2)cc1)c1cc(Br)ccc1Cl returned StopGo FLuc 65.6%[activator] and 2A Renilla -14.1%.
Screening Cc1cccc2c1-c1sc(C(=O)N3CCN(c4ccccc4)CC3)cc1CO2 returned StopGo FLuc -12.9% and 2A Renilla -12.5%.
`CNc1nnc(SCc2coc(-c3ccccc3)n2)s1` gave StopGo FLuc 179.9%[activator] and 2A Renilla 3.9%.
Screening CC(C)CC(=O)N1CCN(C(=O)c2c[nH]c3ccccc23)CC1 returned StopGo FLuc 19.4% and 2A Renilla 2.1%.
CCOc1ccc(-c2nonc2NC(=O)COc2ccccc2)cc1 was read as StopGo FLuc 13.7% and 2A Renilla 62.1%[activator].
`CCC(=O)N1c2ccc(S(=O)(=O)CCC(=O)Nc3ccc(Br)c(C)c3)cc2CC1C` (centres undefined) gave StopGo FLuc -0.6% and 2A Renilla 3.2%.
`CCc1nn2c(=O)cc(COC(=O)c3ccc(NC(=O)c4cccs4)cc3)nc2s1` gave StopGo FLuc -3.6% and 2A Renilla -10.6%.
Screening CCc1ccc(N/C=C(/C#N)c2nc(-c3ccc(C)c(C)c3)cs2)cc1 returned StopGo FLuc 6.7% and 2A Renilla -0.7%.
For COc1ccc(NC(=O)CSC2=Nc3ccccc3C3=NC(Cc4ccccc4)C(=O)N23)cc1Cl (centres undefined) the results were StopGo FLuc -7.4% and 2A Renilla 109.8%[activator].
`N#Cc1ncn(Cc2coc(-c3ccccc3)n2)n1` gave StopGo FLuc 11.7% and 2A Renilla -4.7%.
Screening CCOc1ccc(C(=O)COC(=O)c2nn(CC)c(=O)c3ccccc23)cc1 returned StopGo FLuc -1.4% and 2A Renilla -4.6%.
`O=C(CSc1ncnc2ccccc12)Nc1ccc(F)c(F)c1` gave StopGo FLuc 5.6% and 2A Renilla -11.4%.
COc1ccccc1Cc1nc2ccccc2nc1SCC(=O)N(C)c1ccc(F)cc1 was read as StopGo FLuc -15.6% and 2A Renilla -6.3%.
For Cc1nc2cc(-c3ccccc3)nn2c(C)c1CCC(=O)NCCc1ccccc1 the results were StopGo FLuc inconclusive and 2A Renilla 5.9%.
O=S(=O)(c1ccccc1)N1CCCC1c1nc2ccccc2[nH]1 (centres undefined) was read as StopGo FLuc 7.1% and 2A Renilla 0.7%.
CN(Cc1ccccc1)C(=O)C(=O)Nc1ccc2nc3n(c(=O)c2c1)CCCCC3 was read as StopGo FLuc -11.4% and 2A Renilla 3.1%.
Screening CCOC(=O)CCN(c1ccccc1)S(=O)(=O)c1cc(-c2cc(C)no2)ccc1C returned StopGo FLuc -6.9% and 2A Renilla 71.4%[activator].
CCOC(=O)c1sc2ncn(CC(=O)Nc3ccc(C)cc3C)c(=O)c2c1C was read as StopGo FLuc -22.0% and 2A Renilla -15.8%.
Cc1cc(=O)n2c(C(=O)Nc3ccc(C)c(C)c3)c(C(=O)Nc3ccccc3)sc2n1 was read as StopGo FLuc 24.2% and 2A Renilla 5.0%.
Screening Cc1cc(OCc2nn[nH]n2)c2c(C)cc(=O)oc2c1 returned StopGo FLuc -2.5% and 2A Renilla -16.4%.
`O=C(Nc1c(C(=O)N2CCN(c3ccccc3)CC2)oc2ccccc12)c1ccco1` gave StopGo FLuc 0.7% and 2A Renilla 261.4%[activator].
Screening CCN1CC(CN(C)S(=O)(=O)N(CC)CC)Oc2ccccc21 (centres undefined) returned StopGo FLuc 7.8% and 2A Renilla 16.4%.
`Cc1cccc(-n2ncc3c(Nc4c(C)cc(C)cc4C)ncnc32)c1` gave StopGo FLuc 33.3%[activator] and 2A Renilla 10.6%.
`O=C(c1ccccc1F)N(Cc1ccc2[nH]ccc2c1)C1CC1` gave StopGo FLuc 10.9% and 2A Renilla 62.5%[activator].
Screening N#CCCN(C(=O)CSc1nnnn1-c1ccc(Cl)cc1)c1ccccc1 returned StopGo FLuc 0.5% and 2A Renilla 6.2%.
CCN1CCSc2ccc(C(=O)NCc3ccccc3Br)cc21 was read as StopGo FLuc 0.0% and 2A Renilla -5.3%.
N#Cc1ccccc1CSc1nc(C(F)(F)F)nc2ccccc12 was read as StopGo FLuc 2.1% and 2A Renilla -9.3%.
Screening CC(=O)c1csc(NC(=O)Cc2ccc(OCc3c(C)noc3C)cc2)n1 returned StopGo FLuc inconclusive and 2A Renilla inconclusive.
`O=C(Nc1cccc(F)c1)c1nnc(CSCC(=O)N2CCOCC2)s1` gave StopGo FLuc 111.4%[activator] and 2A Renilla -8.2%.
Screening Cc1ccc(Cl)cc1NC(=O)C1CCCCC1 returned StopGo FLuc 0.0% and 2A Renilla 13.0%.
Screening COc1ccccc1CNC(=O)c1cc2sccc2n1Cc1ccc(Cl)cc1 returned StopGo FLuc 8.0% and 2A Renilla 18.7%.
CC(C)(CC(=O)OCC(=O)Nc1ccc(F)c(Cl)c1)CC1=NS(=O)(=O)c2ccccc2N1 was read as StopGo FLuc -22.2% and 2A Renilla 0.0%.
For CC(NC(=O)c1cccc(C(F)(F)F)c1)C1CC2CCC1C2 (centres undefined) the results were StopGo FLuc 13.8% and 2A Renilla 28.3%.
`Cc1cc(C)c(O)c(-c2n[nH]c3c2C(c2ccc(F)cc2)N(Cc2cccnc2)C3=O)c1` (centres undefined) gave StopGo FLuc 12.9% and 2A Renilla 59.7%[activator].
`O=C(Cn1ncc2c3ccccc3n(Cc3ccc(F)cc3)c2c1=O)NC1CCCCCC1` gave StopGo FLuc -2.9% and 2A Renilla -11.0%.
CCc1ccc(OCCCOc2ccc(Cl)cc2/C=N/NC(C)=O)cc1 was read as StopGo FLuc 2.8% and 2A Renilla 12.6%.
For CC(=O)NCCNC(=O)c1cc2cc(C)ccc2nc1C the results were StopGo FLuc 9.8% and 2A Renilla -0.8%.
For Cc1cc(CNC(=O)Cn2c(=O)c3c(ncn3C)n(C)c2=O)ccc1F the results were StopGo FLuc -8.8% and 2A Renilla -15.6%.
Cc1nn(CC(O)COc2cccc(Br)c2)c(=O)c2ccccc12 (centres undefined) was read as StopGo FLuc 10.0% and 2A Renilla 19.9%.
For COCCCNC(=O)C1CCN(c2nc3ccc(C)cc3[nH]2)CC1 the results were StopGo FLuc 0.7% and 2A Renilla -17.8%.
`COc1ccc(OC)c(C(=O)CN2C(=O)N(c3cc(C)cc(C)c3)S(=O)(=O)c3ccccc32)c1` gave StopGo FLuc -4.3% and 2A Renilla 24.6%.
COc1ccc(CCNC(=O)c2cnc3sc(N4CCCCCC4)nn3c2=O)cc1 was read as StopGo FLuc -13.6% and 2A Renilla -7.3%.

Reprinted from the results shown (two entries):
`COc1ccc(OC)c(C(=O)CN2C(=O)N(c3cc(C)cc(C)c3)S(=O)(=O)c3ccccc32)c1` gave StopGo FLuc -4.3% and 2A Renilla 24.6%.
COc1ccc(CCNC(=O)c2cnc3sc(N4CCCCCC4)nn3c2=O)cc1 was read as StopGo FLuc -13.6% and 2A Renilla -7.3%.

High-throughput results deposited in PubChem BioAssay by National Center for Advancing Translational Sciences (NCATS).

A portion of the library; count on the stated rates, not on these rows.
